Source: PubChem BioAssay (several laboratories)
E coli growth: E. coli growth inhibition, primary screen, OD600; Escherichia coli growth, 23 h; stronger effect = lower value; OD600 absorbance (concentration not given with the values); 0.21% of 330,000 active; AID 1053175, 2014;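 active = OD600 absorbance below the run mean of sample wells minus 3.6 SD, in any replicate, cut at about 0.56 in these data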;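 also: stock transfer was 300 nL into about 60 µL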
FGF22 binding: binders of human FGF22 protein, primary screen, FGF22 synaptogenesis inhibitor project, biophysical, thermal shift, single point; recombinant FGF22 thermal shift, SYPRO orange fluorescence; percent of sucrose octasulfate shift, DMSO zero; calls only at 9.99 µM; 1.5% of 340,000 active; AID 651658, 2012;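 active = melting point raised past a set limit in the mean and every replicate; three in four hits are not shown here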
Target sequence (Q9HCT0 whole entry, looked up): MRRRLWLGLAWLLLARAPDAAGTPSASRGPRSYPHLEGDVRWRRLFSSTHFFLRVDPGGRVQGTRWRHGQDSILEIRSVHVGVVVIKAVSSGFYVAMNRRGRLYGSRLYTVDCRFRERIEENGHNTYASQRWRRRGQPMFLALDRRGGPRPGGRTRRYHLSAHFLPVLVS
AF4-AF9 inh: inhibitors of AF4 peptide binding to AF9, primary screen, biochemical, AlphaScreen, biotin-AF4 peptide, FLAG-AF9, single point. Protein AF-9 (Homo sapiens), P42568. inhibition, % at 10 µM. 0.47% of 350,000 active. AID 651704, 2012;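 active = every replicate reaching a set inhibition limit, whatever the replicate mean, cut at about 25% in these data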;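 also: 0% = plate neutral control median and 100% = total signal loss; the record names both 10 and 1 µM as test concentration; the first replicate is given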
Ecoli rRNA inh: reduced GFP signal of wild-type E. coli, primary screen, bacterial rRNA inhibitor project, GFP/RFP fluorescence, OD600, single point | E. coli WT GFP vs humanized-ribosome RFP mutants, 24 h; stronger effect = lower value; DMSO median 0, no signal -100 | GFP signal change (wild-type ribosome), % (no concentration beside the values) | 1.6% of 350,000 active;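 active = significant combined selectivity score with lowered wild-type GFP, culture density cut under 30%, mutant RFP and density less affected; inactive = any of these conditions unmet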; also: one replicate is shown; some compounds called inactive have numbers as strong as hits
ALR H2O2 inh: inhibitors of human ALR sulfhydryl oxidase, primary screen, biochemical, H2O2 detection, HRP-luminol luminescence, single point. FAD-linked sulfhydryl oxidase ALR (Homo sapiens), P55789. inhibition, % (concentration not given with the values). AID 485317, 2010. purified ALR, DTT oxidation. 3.8% of 290,000 active;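 active = mean and each replicate at 75% or more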;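 also: stock transfer was 7.5 nL into about 7.5 µL; 0% = neutral wells and 100% = wells with inactivated enzyme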
Target sequence (P55789 whole entry, looked up): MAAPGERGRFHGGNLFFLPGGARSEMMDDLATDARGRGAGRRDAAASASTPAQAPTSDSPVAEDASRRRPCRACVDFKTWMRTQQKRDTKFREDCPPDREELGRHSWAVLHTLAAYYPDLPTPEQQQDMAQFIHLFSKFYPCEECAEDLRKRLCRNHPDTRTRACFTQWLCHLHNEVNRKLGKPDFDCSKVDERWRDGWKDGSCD
HNF4A DNA FP: change in binding of human HNF4A to DNA, primary screen, biochemical, fluorescence polarization, FITC-DNA | activity change, % at 10 µM | Hepatocyte nuclear factor 4-alpha (Homo sapiens), P41235 | 1 h | 0.3% of 360,000 active; in the data active = activity change above about 30%, passing the limit was not always enough;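 also: controls were the assay level and a saturating level of protein; the project sought stronger binding though the title names inhibitors; some compounds called inactive have numbers as strong as hits; positive values seem to mean higher polarization but the record does not say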
Target sequence (P41235 whole entry, looked up): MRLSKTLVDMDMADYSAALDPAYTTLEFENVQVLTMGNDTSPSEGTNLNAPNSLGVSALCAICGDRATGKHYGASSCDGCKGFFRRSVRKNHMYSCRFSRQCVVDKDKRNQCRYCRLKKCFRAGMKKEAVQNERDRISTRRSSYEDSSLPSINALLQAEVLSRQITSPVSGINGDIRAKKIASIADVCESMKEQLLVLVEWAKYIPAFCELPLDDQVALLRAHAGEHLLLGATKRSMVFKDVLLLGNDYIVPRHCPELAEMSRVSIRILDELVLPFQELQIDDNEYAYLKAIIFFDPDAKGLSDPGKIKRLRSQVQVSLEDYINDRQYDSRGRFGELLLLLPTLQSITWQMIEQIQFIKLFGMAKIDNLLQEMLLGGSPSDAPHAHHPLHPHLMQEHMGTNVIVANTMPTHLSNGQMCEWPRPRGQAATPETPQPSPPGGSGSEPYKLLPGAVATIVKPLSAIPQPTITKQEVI
Vif TR-FRET: inhibitors of Vif binding to APOBEC3G peptide, primary screen, biochemical, TR-FRET, GST-Vif 1-94, biotin-A3G peptide, dose response retest (AID 1117319) | TR-FRET GST-Vif / biotin-A3G peptide binding; higher % means a stronger effect; test concentration not given here; strong numbers were not always called active | inhibition, %, or IC50 in µM where a hit was titrated | 0.57% of 260,000 active;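 active = above the screen mean plus three standard deviations and confirmed in dose response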;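 also: Vif residues 1-94 fused to GST binding biotinylated APOBEC3G peptide 110-148; 0% = full assay without inhibitor and 100% = GST in place of GST-Vif; retest series ran down from 100 µM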
Ecoli rRNA inh OD600: recorded beside Ecoli rRNA inh, whose call it bears; OD600 change, %; measured here: OD600 growth;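 optical density of the mix in the first replicate; 0 = DMSO median and -100 = no signal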
Ecoli rRNA inh RFP: recorded beside Ecoli rRNA inh, whose call it bears; RFP signal change, %; measured here: RFP humanized mutant strains;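 first replicate; 0 = DMSO median and -100 = no signal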
Numbers without * were called inactive; i = inactive; x = no result given.

canonical_smiles	E coli growth	FGF22 binding	AF4-AF9 inh	Ecoli rRNA inh	Ecoli rRNA inh OD600	Ecoli rRNA inh RFP	ALR H2O2 inh	HNF4A DNA FP	Vif TR-FRET
CC1(C)CC(=O)C=C(C(=O)N2CCCC(CCC(=O)NCc3ccccc3F)C2)O1 (stereo not drawn)	0.721	i	-1.0	14.8	4.0	4.0	-3.8	0.2	-6.5%
CCOC(=O)c1ccc(NC(=O)CSC2=NC(=O)C(CC)C(=O)N2)cc1 (stereo not drawn)	0.681	x	x	x	x	x	98.9*	-3.0	28.1%
CC1CC(C)(C)NC(=S)N1CCC(=O)N1c2ccccc2CC1C (stereo not drawn)	0.698	i	0.2	-0.1	2.4	-1.1	-17.9	-0.8	-8.9%
O=C(O)C12CC3CC(C1)CC(n1ncc(N4CCN(c5ccccc5)CC4)c(Cl)c1=O)(C3)C2	0.682	x	x	x	x	x	63.6	0.3	x
CCCn1c(C)cc(/C=C(\C#N)C(=O)OCC(=O)N(CC)c2c(N)n(Cc3ccccc3)c(=O)[nH]c2=O)c1C	0.639	i	3.9	-6.6	-12.4	1.1	x	0.7	x
O=C(CN1CCN(C(=O)N2CCOCC2)CC1)Nc1cc(Cl)ccc1Cl	0.694	i	2.0	-2.5	-3.3	1.8	-11.3	0.1	-2.6%
O=C(O)Cc1sc(-c2ccc(Cl)cc2)nc1-c1ccccc1	0.672	x	x	x	x	x	64.5	2.5	-16.3%
N#CCCN(Cc1ccccc1)C(=S)Nc1ccccc1	0.681	x	x	x	x	x	-7.9	2.3	6.9%
CC(=O)N1CCN(c2cccc(C)c2C)CC1	0.663	x	x	x	x	x	2.7	0.1	-4.1%
CC(=O)Nc1ccc(OCCC[n+]2cccc(C(=O)[O-])c2)cc1	0.665	i	-3.2	9.8	6.8	-0.1	-3.2	4.2	9.2%
CC(=O)OC1OCCOC1NC(=S)NCc1ccco1 (stereo not drawn)	0.688	x	0.4	-0.8	11.6	2.2	0.8	0.4	31.5%
Nc1nonc1-n1nnc(C(=O)N/N=C/c2c(Cl)cccc2Cl)c1CSC1=NCCS1	x	i	8.7	2.7	9.9	-3.1	2.3	-2.3	28.4%
Cc1cc(C(=O)NCC(C)(C)N2CCOCC2)c(C)o1	0.633	i	-18.5	7.9	8.8	-1.5	8.6	0.8	2.8%
N#Cc1c(N2CCN(C(=O)c3ccccc3Cl)CC2)nc(-c2ccccc2)c2c1CCCC2	0.689	x	x	x	x	x	-20.6	3.5	-1.1%
COC(=O)c1ccc(-n2nnnc2SCC(=O)Nc2ccccc2C(=O)OC)cc1	0.722	x	x	x	x	x	x	0.9	4.5%
CCCc1cc(C(=O)Nc2cc(C)on2)no1	0.63	i	1.0	0.4	9.2	-3.2	-20.4	3.5	0.6%
CC1(NC(=O)COc2ccccc2-c2ccccc2)CCS(=O)(=O)C1 (stereo not drawn)	0.624	x	x	x	x	x	-0.3	-3.0	1.3%
O=C(O)/C=C/c1cn(Cc2ccccc2Cl)nc1-c1ccccc1	0.71	i	-2.6	-7.8	2.5	-0.7	6.6	1.6	21.2%
CCc1ccc(C2CC(=O)N3CN(c4ccccc4)CSC3=C2C#N)cc1 (stereo not drawn)	0.749	i	4.9	0.1	9.1	-3.2	x	-3.4	-0.1%
CCOC(=O)c1c(NC(=O)CSc2nnc(CNc3ccc(F)cc3)o2)sc(C(C)=O)c1C	0.716	x	x	x	x	x	2.3	6.6	19.7%
Cc1noc(C)c1COC(=O)c1csc2c1CCC(C)C2 (stereo not drawn)	0.684	i	-2.4	-7.5	-39.2	7.5	-12.3	-2.5	-6.2%
COc1ccc(NC(=O)Nc2ccc3c(c2)CC(=O)N([C@@H](C)CO)C[C@H](C)[C@@H](CN(C)C)O3)cc1	x	i	1.5	0.4	3.7	-3.3	x	x	x
CC(=O)NCCc1ccc(S(=O)(=O)N(C)C2CCS(=O)(=O)C2)cc1 (stereo not drawn)	0.719	x	x	x	x	x	x	-1.6	1.8%
Cc1cc(C)c(C)c(S(=O)(=O)Nc2ccccc2C(=O)NCCCN2CCOCC2)c1C	0.677	i	1.7	2.4	3.4	-1.8	1.3	5.1	-0.5%
C[C@H](CO)N1C[C@H](C)[C@H](CN(C)CC2CCOCC2)Oc2ncc(-c3ccc(F)cc3)cc2C1=O	x	i	-5.3	2.3	13.3	-3.7	x	x	x
c1ccc(CCNC2=NCCCS2)cc1	0.643	x	x	x	x	x	-15.0	0.8	0.8%
CCCNC(=O)N1C[C@H](O)COC[C@H]2O[C@H](CC(=O)N3CCCCC3)CC[C@@H]21	x	i	1.9	-1.2	-1.5	-2.3	x	x	x
CCOC(=O)c1ccc(OCCOc2cccc(C)c2)cc1	0.675	i	-1.7	-15.9	-11.6	-4.0	-9.0	1.6	x
O=C(CCN1CCCCC1)N[C@H]1CC[C@@H](CCNC(=O)c2cc(Cl)cc(Cl)c2)O[C@H]1CO	x	i	0.7	-2.4	-3.8	0.5	x	x	x
NC(=O)[C@@H]1CCCN1C(=O)c1cc(COc2ccc3c(c2)CCCC3)on1	0.691	i	-2.9	x	x	x	26.6	2.5	x
COC(=O)C1=C(C)N(C2CCCC2)C(=O)C1(NC(C)=O)C(F)(F)F (stereo not drawn)	0.696	x	x	x	x	x	-1.0	2.7	0.8%
CCc1c(-c2ccc(F)cc2)ncn1Cc1cccc(-c2ccccc2)c1	x	i	1.4	-12.1	-38.1	11.9	x	3.5	x
CN(n1cnc2ccccc2c1=O)S(C)(=O)=O	0.647	i	-1.1	1.1	-6.9	-2.1	-18.1	-2.4	-5.5%
COc1ccc(CC(=O)N2CCN(c3ccccc3)CC2)cc1OC	0.694	i	-1.2	-6.1	-1.3	-4.0	60.0	1.3	x
Cc1c(C(=O)NCc2cccc([N+](=O)[O-])c2)sc(=O)n1Cc1cccc(F)c1	x	i	11.5	9.8	1.6	1.6	x	-2.5	x
C[C@H](CO)N1C[C@H](C)[C@H](CN(C)S(=O)(=O)c2cccs2)OCCCC[C@H](C)Oc2ccc(NC(=O)Nc3ccc(C(F)(F)F)cc3)cc2C1=O	x	i	0.4	1.5	2.8	-0.4	x	x	x
C=CCN1C[C@H](COC(=O)c2cccc(OC)c2)Oc2cccc(F)c2S1(=O)=O	x	i	0.1	-27.8	-22.6	-2.6	x	x	x
COc1ccc(C(Nc2ccccn2)c2oc(CO)cc(=O)c2O)cc1 (stereo not drawn)	0.652	i	16.5	-1.1	3.5	7.4	97.9*	0.9	20.9%
Cc1cccc(NC2=C(Cl)C(=O)OC2OC(=O)c2ccco2)c1 (stereo not drawn)	0.67	i	-0.7	7.7	3.6	1.4	13.5	-3.5	2.6%
COc1ccccc1N(CC(=O)NC1CCCCC1)S(=O)(=O)c1cccs1	0.692	i	-4.8	3.4	-3.6	-4.1	3.5	-5.2	x
Cn1c(=O)n(C)c2cc(S(=O)(=O)N3CCCCC3)ccc21	0.634	i	-8.1	-0.7	-1.5	-1.7	1.9	2.3	x
CCc1nc(SCc2cccnc2)c(C#N)cc1C	0.693	x	x	x	x	x	2.1	-4.2	-2.9%
CO[C@H]1CN(C)C(=O)c2ccc(NC(=O)c3cc(C)on3)cc2OC[C@@H](C)NC[C@@H]1C	x	i	-3.8	0.7	5.3	1.7	x	x	x
C[C@H]1CN([C@@H](C)CO)C(=O)CCCn2cc(nn2)CO[C@H]1CN(C)Cc1ccncc1	x	i	1.9	3.5	7.7	-2.8	x	x	x
CCN1CCN(c2nc(C)nc3c2sc(=S)n3C)CC1	x	i	1.8	3.2	0.8	1.5	x	2.0	-11.4%
CCc1nc(SCC(=O)c2c[nH]c3ccccc23)n[nH]1	0.665	i	-2.7	-1.9	-1.9	-2.3	x	6.6	x
O=C(O)CN=C1NC2(CCCCC2)Cc2ccccc21	0.682	x	x	x	x	x	0.8	-0.1	3.9%
Oc1cccnc1CCc1ccccc1	0.649	i	-1.6	15.1	-2.2	-0.2	50.1	-1.2	0.1%
COc1cccc(C#Cc2cnc3c(c2)C(=O)N([C@H](C)CO)C[C@@H](C)[C@H](CN(C)C(=O)C2CCC2)O3)c1	x	i	0.2	-4.2	-6.0	6.0	x	x	x
CC(=O)c1ccccc1NC(=O)COC(=O)C1=NN(c2ccccc2)C(=O)CC1	0.673	i	5.4	2.9	10.9	0.4	x	-0.2	8.1%
CC1Cc2ccccc2N1c1ncnc2c1nnn2Cc1ccccc1Cl (stereo not drawn)	0.756	x	x	x	x	x	x	0.7	-10.2%
CCNc1cc2n(c(=O)n1)CCc1cc(OC)c(OC)cc1-2	0.631	x	x	-0.4	7.5	0.9	3.1	-0.3	-2.7%
Cc1cc(C)c(C(O)c2ncc(-c3ccccc3C)[nH]2)c(C)c1 (stereo not drawn)	x	i	6.6	7.1	-2.8	1.5	x	1.4	x
Clc1ccccc1-c1nnc(-c2cccs2)o1	0.672	i	-7.9	-2.2	-4.8	-2.7	0.7	3.8	-1.8%
CCCc1cc(N2CCCC(C(=O)NCc3ccc4c(c3)OCO4)C2)n2ncnc2n1 (stereo not drawn)	0.727	i	-7.4	-9.9	-4.8	-8.4	-2.3	2.8	1.1%
O=C(COC(=O)c1ccncc1)c1ccc(Br)cc1	0.633	i	-1.7	11.0	9.7	-0.6	-6.8	0.5	x

New compounds follow
canonical_smiles	E coli growth	FGF22 binding	AF4-AF9 inh	Ecoli rRNA inh	Ecoli rRNA inh OD600	Ecoli rRNA inh RFP	ALR H2O2 inh	HNF4A DNA FP	Vif TR-FRET
CCCCN1C(=O)C(CC(=O)NCc2cccs2)CC(C(=O)N(CC)CC)=C1C (stereo not drawn)	x	i	0.0	7.5	0.5	2.7	x	1.3	-2.9%
CN(C)C(=O)C[C@H]1C[C@H]2c3cc(NC(=O)CC4CC4)ccc3O[C@H]2[C@H](CO)O1	x	i	-1.5	4.2	10.0	-0.5	x	x	x
COc1ccc(CCN2C(=O)CS/C2=N/NC(=O)c2ccccc2F)cc1OC	x	i	-0.7	7.9	5.5	5.2	6.3	1.2	-7.6%
CCCn1c(N)c(N(CCOC)C(=O)c2ccc(N3CCCC3=O)cc2)c(=O)[nH]c1=O	0.664	i	-0.3	15.1	7.7	1.8	x	1.2	-2.8%
CCn1c(=O)c(C(=O)Nc2ccc(C)cc2)c(O)c2ccccc21	0.628	i	4.8	2.1	1.0	-0.8	-11.4	-3.0	-9.8%
Cc1ccccc1-n1c(SCC(=O)NC2CC2)nc2ccccc2c1=O	x	i	-5.3	4.6	6.2	1.0	x	-2.1	0.8%
C[C@]12CC[C@H](O)C[C@@H]1CC[C@@H]1[C@@H]2CC[C@@]2(C)[C@H]1CCC(=O)[C@]21CCCO1	0.702	i	-3.0	13.7	2.1	0.5	x	0.9	-1.3%
Cc1ccc(C(=O)Nc2cccc(S(=O)(=O)N3CCCCC3)c2)cc1[N+](=O)[O-]	0.665	i	3.4	-8.1	-1.3	5.5	-4.2	0.5	-3.7%

A portion of the library. The share of hits here may be higher or lower than overall.
